Compound activity from PubChem BioAssay.
SARS PLpro yeast: qHTS of Yeast-based Assay for SARS-CoV PLP | S. cerevisiae expressing SARS-CoV PLpro, growth rescue; control for the full effect not named in the record | 330,000 compounds, 0.19% hits | Potency, µM (series often up to 32.9 µM), for the others: at the top dose activity, positive = growth rescue; active means well fitted rising curve with a large enough effect; inconclusive means small, poorly fitted or top-dose-only effect; inactive means no such curve, though single readings can be large or run the other way; also: 0% is about no effect; nearly all actives have a fitted effect of over 55% in size; growth read by luminescence after 48 h
Cruzain noTriton: qHTS Assay for Promiscuous and Specific Inhibitors of Cruzain (without detergent). Cruzipain (Trypanosoma cruzi), P25779. purified cruzain, Z-FR-AMC fluorescence, no detergent. Potency, µM, for the others: max response, negative = inhibition, actives largely listed as inhibitors. 200,000 compounds, 2.3% hits;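 also: plate controls were enzyme without inhibitor for no effect and buffer without enzyme for full effect; nearly all actives have a fitted effect of over 40% in size; top concentration of the series not given in the record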
Target sequence (P25779 123-467 limits assumed): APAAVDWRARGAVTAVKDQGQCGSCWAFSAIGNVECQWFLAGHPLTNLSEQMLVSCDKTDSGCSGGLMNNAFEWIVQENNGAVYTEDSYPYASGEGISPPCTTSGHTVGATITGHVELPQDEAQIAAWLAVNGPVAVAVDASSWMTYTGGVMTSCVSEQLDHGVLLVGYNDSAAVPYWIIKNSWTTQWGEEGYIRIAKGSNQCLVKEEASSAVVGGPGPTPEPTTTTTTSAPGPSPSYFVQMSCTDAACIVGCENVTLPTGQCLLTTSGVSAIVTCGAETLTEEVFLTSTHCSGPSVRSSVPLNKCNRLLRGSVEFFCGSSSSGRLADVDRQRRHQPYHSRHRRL
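Purified cruzain at 1.5 nM, pre-incubated 15 min with compound at room temperature in 100 mM sodium acetate pH 5.5, 5 mM DTT, 0.00005% Triton X-100. Reaction started with 2 uM Z-FR-AMC; AMC fluorescence increase over 60 s gives rate.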
StopGo reporter: High Throughput Screening for Foot and Mouth Disease Virus Antivirals | 410,000 compounds, 1.2% hits | human cells with a luciferase reporter of 2A StopGo recoding; control for the full effect not named in the record | Potency, µM (top dose mostly 57.9 µM), for the others: at the top dose signal change, negative = less light | AID 1159524, 2015; active = well fitted falling curve with a large enough effect; inconclusive = small, poorly fitted or top-dose-only effect; inactive = no such curve, though single readings can be large or run the other way; tested in HEK293T cells; also: % is scaled to controls: 0 for no effect and ±100 for the full control effect; nearly all actives have a fitted effect of over 45% in size; luciferase light after 4 h
RE007 growth inh: qHTS Assay for Inhibitors of the HIV-1 protein Vpr | S. pombe RE007 Vpr strain, BacTiter-Glo ATP luminescence, 24 h; control for the full effect not named in the record | Potency, µM (highest dose often 92.2 µM), for the others: at the top dose activity change, negative = less growth | 360,000 compounds, 0.21% hits; active = well fitted falling curve with a large enough effect; inconclusive = small, poorly fitted or top-dose-only effect; inactive = no such curve, though single readings can be large or run the other way;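 also: % is scaled to controls: 0 for no effect and ±100 for the full control effect; nearly all actives have a fitted effect of over 50% in size; the assay follows cell death caused by Vpr and the record does not say whether a fall means rescue or toxicity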
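Fission yeast RE007 carrying one integrated HIV-1 vpr copy, seeded at OD 0.01 in PMG+AL medium with 23 nL pinned compound. Grown 24 h at 30 degrees; viability read by BacTiter-Glo luminescence after 5 min.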
NS1 function inh: qHTS Assay for Inhibitors of Influenza NS1 Protein Function; S. cerevisiae slowed by influenza A NS1, growth recovery by OD600; 270,000 compounds, 0.4% hits; AID 2326, 2010; Potency, µM (top dose mostly 46.1 µM), for the others: top-dose activity, positive = more growth; active means well fitted rising curve with a large enough effect; inconclusive means small, poorly fitted or top-dose-only effect; inactive means no such curve, though single readings can be large or run the other way; also: nearly all actives have a fitted effect of over 50% in size
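Compounds were scored for reversing the slow growth caused by influenza A NS1 in S. cerevisiae, measured by optical density at 600 nm. Assay medium contained 2% galactose at pH 6.0; NS1-free yeast of the same strain were the positive control.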
LASV entry inh: qHTS for Inhibitors of binding or entry into cells for Lassa Virus; Potency, µM (series often up to 37.9 µM), inactives show at the top dose activity change, negative = inhibition, actives largely listed as inhibitors; 300,000 compounds, 1.2% hits; Lassa virus pseudotype entry inhibition, cell reporter; control for the full effect not named in the record; active means well fitted inhibition curve with a large enough effect; inconclusive means small, poorly fitted or top-dose-only effect, or effect the other way; inactive means flat fitted curve, though single readings scatter; tested in HEK293 cells; also: % is scaled to controls: 0 for no effect and ±100 for the full control effect; nearly all actives have a fitted effect of over 50% in size; luciferase read-out
MARV entry inh: qHTS for inhibitors of binding or entry into cells for Marburg Virus; Marburg virus pseudotyped entry inhibition, cell reporter; control for the full effect not named in the record; about a third of the inactives were read at about 46 µM; Potency, µM (top dose mostly 37.8 µM), for the others: at the highest dose activity change, negative = inhibition, usual class: inhibitors; 300,000 compounds, 1.8% hits; AID 540276, 2011; active = well fitted inhibition curve with a large enough effect; inconclusive = small, poorly fitted or top-dose-only effect, or effect the other way; inactive = flat fitted curve, though single readings scatter; tested in HEK293 cells; about a fifth of its hits are not listed in these tables; also: % is scaled to controls: 0 for no effect and ±100 for the full control effect; luciferase read-out
Cruzain inh Det: qHTS Assay for Promiscuous and Specific Inhibitors of Cruzain (with detergent); Cruzipain (Trypanosoma cruzi), P25779; Potency, µM, for the others: max response, negative = inhibition, usual class: inhibitors; AID 1478, 2009; purified cruzain, Z-FR-AMC fluorescence, 0.01% Triton; 200,000 compounds, 0.43% hits;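 also: plate controls were neutral wells for no effect and buffer without enzyme for full effect; nearly all actives have a fitted effect of over 40% in size; top concentration of the series not given in the record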
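Enzyme 1.5 nM, Z-FR-AMC 2 uM, NaOAc 100 mM pH 5.5, DTT 5 mM, Triton X-100 0.01%; 15 min RT compound preincubation; kinetic ex360/em450, 60 s delta.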
Active calls of the source: *; u = inconclusive; x = no result given; & = joins results of further samples; [ ] = remark or other dose. Unless noted, calls follow the shape of the dose curve; as a rule, active = well fitted curve in the direction sought with a large enough effect; inconclusive = small, poorly fitted or top-dose-only effect, or another doubt; inactive = no such curve, though single readings can be large; an effect the other way counts as inactive or inconclusive. Potency is read from the fitted curve at half-maximal effect.

Structure	SARS PLpro yeast	StopGo reporter	LASV entry inh	Cruzain noTriton	Cruzain inh Det	MARV entry inh	NS1 function inh	RE007 growth inh
Cn1nnc(NC(=O)COc2ccc(C3CCCCC3)cc2)n1	-4%	u	-7%	u	-7.2%	-4%	-100%	22%
Cc1cc(F)ccc1NC(=O)CCS(=O)(=O)c1ccc2c(c1)CC(C)N2C(=O)C1CC1 (stereo not given)	x	-11%	-2%[46.1 µM]	-1%	-2.8%	x	x	x
O=C(Cc1ccc(F)cc1)NCc1nc2cccnc2n1Cc1ccc(F)cc1	x	-16%	-2%[46.1 µM]	0%	-2.6%	x	x	x
COc1ccc(Oc2coc3c(CN(C)C)c(O)ccc3c2=O)cc1	-8%	26%	-14%	-11%	0.2%	13%[46.1 µM]	6%	-12%
COC(=O)COc1cc(OCC(=O)OC)c2c(-c3ccccc3)cc(=O)oc2c1	-4%	-9%	x	x	x	x	-2%	-3%
CCn1nc(C)c(CNC(=O)Nc2ccccc2C(=O)OC)c1C	1%	u	u	x	x	-28%	-4%	15%
COC(=O)c1cccc(C(=O)N2CCC(CO)(Cc3ccccc3Cl)CC2)c1	-1%	-15%	0%[46.1 µM]	x	x	1%[46.1 µM]	-1%	-2%
CCCCC1(COC(=O)CCC(=O)O)C(=O)N(c2ccccc2)N(c2ccccc2)C1=O	x	-22%&53%	x	-4%&21%	1.4%&-1.6%	x	x	-24%
COc1ccc(/C=C2\N=C(c3ccccc3Cl)NC2=O)cc1	-3%	53%[activator]	x	x	x	x	11%	-14%
CC(C)CNC(=O)C1(N2C(=O)c3ccccc3C2=O)CCCC1	x	-23%	18%	x	x	u	x	8%
COc1ccc(CNC(=O)c2ccc(C(C)(C)C)cc2)cc1	0%	72%[activator]	-14%	x	x	u	5%	5%
O=C(Cn1c(=O)n(Cc2ccccc2)c(=O)c2ccccc21)NCc1ccco1	-2%	0%	2%	13%	2.7%	-7%	5%	2%
CCNC(=O)NC(=O)C(C)OC(=O)c1cc(S(=O)(=O)N2CCCCCC2)ccc1OC (stereo not given)	9%	u	u	u	-0.1%	-14%	-17%	0%
Cc1cc(=O)oc2cc(OCC(=O)N3c4ccccc4NC(=O)C3(C)C)ccc12	-1%	-18%	4%[46.1 µM]	x	x	4%[46.1 µM]	x	5%
Cc1c(NC(=O)C(C)Oc2ccc(Br)cc2Cl)c(=O)n(-c2ccccc2)n1C (stereo not given)	x	-12%	3%[46.1 µM]	x	x	-20%	x	-6%
CC1CCc2c(sc3nc(C4CC4)nc(N4CCN(C(=O)c5ccco5)CC4)c23)C1 (stereo not given)	x	25µM*	u	x	x	x	x	-31%
CC(C)=CCN1CCN(Cc2cccc3nccnc23)CC1CCO (stereo not given)	1%	-2%	x	x	x	x	7%	6%
S=C(NCC1CCCCC1)Nc1ccc(Oc2ccccc2)cc1	-68%	8%	u	3%	-3.0%	u	-23%	-1%
CC(C)C(C)(NC(=O)c1cccn(Cc2ccc3c(c2)OC(F)(F)O3)c1=O)C(N)=O (stereo not given)	-2%	-2%	4%[46.1 µM]	x	x	0%[46.1 µM]	x	1%
COC(=O)c1ccc(CO/N=C(\NC(C)=O)c2nonc2NC(C)=O)cc1	1%	14%	5%	6%	0.4%	29%	3%	10%
CC1CC(C)(C)NC(=S)N1CCC(=O)Nc1ccc2c(c1)OCCO2 (stereo not given)	0%	u	3.5µM*	x	x	11µM*	x	17%
CCc1ccccc1NC(=O)Cn1c(=O)n(CCc2ccccc2)c(=O)c2ccccc21	x	-1%	-13%[46.1 µM]	1%	-0.3%	u	x	x
Cc1ccc2c(c1)N(C(=O)CCC(=O)NCc1cccnc1)CC(C)O2 (stereo not given)	-10%	0%	x	x	x	x	-12%	-9%
O=[N+]([O-])C1=CC=C2C(=NC3(CCCCC3)N2O)C1=NCCc1ccccc1	-2%	-24%	-1%	x	x	23%[46.1 µM]	x	6%
CC(=O)N1CCN(S(=O)(=O)c2ccc(C)c([N+](=O)[O-])c2)C1C(C)C (stereo not given)	2%	35%[activator]	12%[46.1 µM]	x	x	11%[46.1 µM]	x	60%
O=C(NC1C2CCCC1CN(C1CC1)C2)c1ccc(Cl)cc1 (stereo not given)	-3%	u	x	x	x	x	-2%	5%
Cc1c(CCC(=O)NCCCn2ccnc2)c(=O)oc2cc3oc4c(c3cc12)CCCC4	-2%	-12%	x	x	x	x	1%	-5%
C/C(=N\Nc1ccc(Cl)cc1)c1c(O)cc(C)oc1=O	-2%	30%	-6%[46.1 µM]	x	x	u	x	4%
COC(=O)c1cc(S(=O)(=O)Nc2cccc(S(N)(=O)=O)c2)oc1C	1%	10%	19%	x	x	-1%[46.1 µM]	6%	-1%
Cc1ccc2nsnc2c1NC(=O)CCl	5%	-14%	x	x	x	x	2%	3%
Cn1cccc1/C=N/N1CCN(Cc2ccc(Cl)cc2)CC1	1%	0%	-23%[46.1 µM]	x	x	-15%[46.1 µM]	11%	-4%
CCCCCCCCCCCCCC(=O)NO	x	19%	-7%	x	x	22%	x	57%
COC(=O)C(C(=O)OC)N1C(=O)CCC1=O	1%	8%	0%	0%	-1.0%	12%	4%	19%
O=C(O)c1ccc(N2CCS(=O)(=O)CC2)cc1	0%	19%	3%	x	x	8%[46.1 µM]	x	-18%
COc1ccc(N(CC(=O)N2CCN(Cc3ccccc3)CC2)S(=O)(=O)c2ccccc2)cc1	1%	-13%	-1%	x	x	u	-19%	10%
O=C(N/N=C/c1ccc2nccnc2c1)c1ccncc1	0%	11%	x	x	x	x	7%	-7%
Cc1ccc(NC(=O)CSc2nnc(C)s2)c(C)c1	x	5%	14%[46.1 µM]	-12%	-0.1%	x	x	x
O=C(NCCc1ccccc1)C(c1ccccc1F)N(C(=O)c1csnn1)C1CC1 (stereo not given)	4%	2%	u	x	x	14%[46.1 µM]	-6%	-7%
C#CCN(Cc1ccco1)C(=O)c1cc(COc2ccc(F)cc2Cl)on1	1%	7%	0%	x	x	-14%[46.1 µM]	0%	23%
O=C1NC(=NCc2ccccc2)S/C1=C/c1ccc(O)cc1	8%	70%[activator]	u	5%	-9.8%	u	10%	7%
COc1cccc(N2CCN(c3c4c(nc5ncnn35)CCC4)CC2)c1	-2%	14µM*	-17%	-5%	3.3%	-42%	-2%	-10%
Fc1ccc2[nH]c(-c3cccs3)cc2c1	x	17%	-3%[46.1 µM]	6%	-12%	-1%[46.1 µM]	x	x
COc1ccc(/C=N/NC(=O)CN2CCCCCCC2)c(C)c1C	1%	u	-2%[46.1 µM]	x	x	u	-10%	-15%
CCC(C)NS(=O)(=O)c1ccc(S(=O)(=O)N2CC=C(c3ccc(F)cc3)CC2)cc1 (stereo not given)	-8%	u	-6%	-8%	-5.4%	u	2%	-8%
COc1cc(-c2cc3n(C)c(C)c(CCC(=O)NCc4ccccc4)c(=O)n3n2)cc(OC)c1OC	x	1%	18%[46.1 µM]	1%	-1.4%	x	x	x
C/C(=N\O)C(C)(C)Nc1cccc(F)c1	-3%	-14%	x	x	x	x	4%	-1%
O=C(/C=C/NNC(=O)c1cccc(Br)c1)c1cccc(Br)c1	-6%	x	-10%	7.9µM*	-6.4%	-23%	-61%	-15%
COc1cccc(OC)c1C(=O)NC(=S)NCc1ccccc1	0%	-7%	1%	x	x	u	1%	37%
CCN(CC)c1ccc(C(=O)NNC(=O)CN2C(=O)NC3(CCCCC3)C2=O)cc1	-6%	-5%	5%	x	x	2%	x	-29%
CC(C)CC1=C/C(=C/c2ccc(-c3ccccc3)o2)C(=O)O1	-14%	12%	-2%	-8%	u	u	12%	-21%
COc1ccc(NC(=S)N2CCNC(=O)C2CC(=O)Nc2cccc(Cl)c2C)cc1 (stereo not given)	26%	0%	0%	u	-4.7%	-6%	9%	2%
NS(=O)(=O)c1ccc(CCNC2CC(=O)N(CCc3ccccc3)C2=O)cc1 (stereo not given)	2%	-7%	-3%	-3%	0.7%	10%[46.1 µM]	4%	-9%
O=C(CS(=O)(=O)c1ccccc1)N1CCc2ccccc21	-2%	30%[activator]	2%[46.1 µM]	x	x	0%[46.1 µM]	3%	-8%
COc1ccc(S(=O)(=O)Cc2ccc(C(=O)N3CCN(c4cc(C)ccc4C)CC3)o2)cc1	0%	-21%&-20%	-9%[46.1 µM]	u	-7.0%	5%&5%[46.1 µM]	-35%	0%
